High-throughput results deposited in PubChem BioAssay by National Center for Advancing Translational Sciences (NCATS).
VDR inhibitor: Inhibitors of the vitamin D receptor (VDR): qHTS | Vitamin D3 receptor (Homo sapiens), P11473 | VDR-SRC2-3 peptide fluorescence polarization, 2 h | Potency, µM, for inactives: max response, negative = inhibition, usual class: inhibitors | 400,000 compounds, 0.93% hits | AID 504847, 2011; active = well fitted inhibition curve with a large enough effect; inconclusive = small, poorly fitted or top-dose-only effect, or another doubt; inactive = no such curve, though single readings can be large or run the other way; note: series mostly up to about 120 µM
Target sequence (P11473 whole entry, looked up): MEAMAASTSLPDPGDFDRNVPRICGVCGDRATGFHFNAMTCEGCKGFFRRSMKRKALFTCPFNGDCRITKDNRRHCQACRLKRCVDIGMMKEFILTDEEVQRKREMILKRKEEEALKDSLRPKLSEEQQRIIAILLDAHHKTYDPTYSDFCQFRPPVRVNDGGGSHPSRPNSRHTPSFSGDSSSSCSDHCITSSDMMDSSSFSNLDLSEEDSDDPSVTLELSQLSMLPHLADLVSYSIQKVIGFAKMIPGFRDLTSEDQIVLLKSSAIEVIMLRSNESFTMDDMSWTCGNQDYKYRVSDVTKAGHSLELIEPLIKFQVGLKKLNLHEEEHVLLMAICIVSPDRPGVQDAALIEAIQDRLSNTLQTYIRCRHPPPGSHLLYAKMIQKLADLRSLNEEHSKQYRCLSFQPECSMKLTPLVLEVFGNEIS
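Reagent solutions, kept cold and dark, are dispensed first; compounds are then pinned in at 23 nl, plates briefly spun, and incubated 2 h at ambient temperature. Inhibition of VDR–SRC2-3 peptide binding is read by fluorescence polarization.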
Numbers without * were called inactive; ? = inconclusive; & = joins results of further samples; [ ] = remark or other dose. % is set by controls: 0 for no effect and ±100 for the full control effect; potency is the fitted concentration of half-maximal effect. Only part of the results is shown, so the mix of outcomes need not match the whole.

Molecule	VDR inhibitor
CC[C@H](C)[C@H](NC(=O)[C@H](Cc1ccc(O)cc1)NC(=O)[C@H](Cc1cnc[nH]1)NC(=O)[C@H](CCCNC(=N)N)NC(=O)[C@H](CC(C)C)NC(=O)[C@H](C)NC(=O)[C@H](CO)NC(=O)[C@H](Cc1ccc(O)cc1)NC(=O)[C@H](Cc1ccc(O)cc1)NC(=O)[C@H](CCCNC(=N)N)NC(=O)[C@H](C)NC(=O)[C@H](CC(C)C)NC(=O)[C@H](CC(=O)O)NC(=O)[C@H](CCC(=O)O)NC(=O)[C@H](C)NC(=O)[C@@H]1CCCN1C(=O)[C@H](C)NC(=O)[C@H](CC(=O)O)NC(=O)[C@H](CCC(=O)O)NC(=O)CNC(=O)[C@@H]1CCCN1C(=O)[C@H](CC(N)=O)NC(=O)[C@H](CC(=O)O)NC(=O)[C@@H]1CCCN1C(=O)[C@H](CCCCN)NC(=O)[C@H](CO)NC(=O)[C@@H]1CCCN1C(=O)[C@@H](N)Cc1ccc(O)cc1)C(=O)N[C@@H](CC(N)=O)C(=O)N[C@@H](CC(C)C)C(=O)N[C@@H](CC(C)C)C(=O)N[C@H](C(=O)N[C@@H](CCCNC(=N)N)C(=O)N1CCC[C@H]1C(=O)N[C@@H](CCCNC(=N)N)C(=O)N[C@@H](Cc1ccc(O)cc1)C(N)=O)[C@@H](C)O	2.4%
Nc1n[nH]c2cc(=O)n(-c3ccc(Cl)cc3)nc12	-15.4%
CCN(CC)S(=O)(=O)c1ccc(NC(=O)CSc2nnc3c(n2)[nH]c2ccccc23)cc1	16.3%
O=C(Nc1ccccc1)C1CCCCC1	7.7%
CC(C)(C)c1ccc(C(=O)N2CCC(C(=O)N3CCCCC3)CC2)cc1	5.0%
CCN(CCn1cccn1)Cc1cn[nH]c1-c1cccc2ccccc12	-6.2%
COc1ccccc1C(=O)OCC(=O)NC1CCCC1	-10.5%
CCOc1ccc(C(=O)NCC(=O)NCC(c2ccco2)N2CCCCC2)cc1 (stereo unspecified)	8.0%
Cc1cc(N2CCOCC2)n2nc(C)c(-c3ccc(Cl)cc3)c2n1	16.2%
COc1ccc(NC(=O)CN(C)CC(=O)Nc2cccc(F)c2)cc1Cl	15.1%
O=C(CS(=O)(=O)c1cccc2nsnc12)NCc1ccccc1Cl	22.1%
COc1cc(C(=O)N(c2ccc(C)c(C)c2)C2C=CS(=O)(=O)C2)cc(OC)c1OC (stereo unspecified)	-26.4%
OCC1(Cc2ccc(F)cc2F)CCCN(CCCc2ccccc2)C1 (stereo unspecified)	-4.2%
Cc1cc(NC(=O)C(C)SCC(=O)OCC(=O)N(C)c2ccccc2)no1 (stereo unspecified)	?
CCC(C)c1ccc(S(=O)(=O)N2CCN(C(C)C(=O)NC3CCCC3)CC2)cc1 (stereo unspecified)	-15.3%
CCCn1c(Cc2ccccc2)n[nH]c1=S	8.6%
CC(=O)c1cccc(NC(=O)c2cc(-c3ccco3)on2)c1	2.6%
Cc1cccc(Nc2nc(NCCO)nc(N3CCCC3)n2)c1	-2.5%
CC(C)OCCCNC(=O)CSc1c2c(nc3ccc(Cl)cc13)CCCC2	-27.7%
COc1cccc(-c2cc(C(=O)N3CCCCCC3)no2)c1	-3.0%
COc1ccc2[nH]c3c(C)c4ccncc4c(C)c3c2c1	4.0%
CCOc1ccc(S(=O)(=O)N2CCN(C(=O)c3cc4c(s3)CCCC4)CC2)cc1	6.0%
c1ccc(-c2nc3ccccc3[nH]2)cc1	-5.7%
CC(=O)c1c(C)nc(-c2ccccc2)nc1NC(=O)C(C)C	-4.0%
O=c1c2ccccc2oc2cc(OCc3ccc(F)cc3)cc(O)c12	0.7%
CC(C)N1CCN(Cc2ccc3c(c2)Cc2ccccc2-3)CC1CCO (stereo unspecified)	-7.9%
CC1=C(c2ccc(C(C)C)cc2)S(=O)(=O)NC1=NCc1ccc(Cl)cc1	-2.3%
Cc1nn2c(COc3ccc(NC(=O)c4ccccc4Cl)cc3)nnc2c2ccccc12	-6.1%
CSc1cccc(NC(=O)CN(c2ccc(C)cc2C)S(C)(=O)=O)c1	13.7%
Cc1ccc(/C=N/Nc2cn[nH]c(=O)n2)o1	7.1%
CC(=O)c1c(C)nc2nonc2c1N	0.3%
Cc1cc(C)c(C#N)c(SCC2COc3ccccc3O2)n1 (stereo unspecified)	20.5%
CCn1c(SCC(=O)N/N=C/C=C\c2ccccc2[N+](=O)[O-])nc2ccccc21	-17.0%
Cc1cc(C)c(C)c(OCCCCn2cnc3ccccc3c2=O)c1	-0.5%
N#C/C(=C/c1ccc(CNS(=O)(=O)c2ccccc2)o1)C(N)=O	5.6%
Cc1cc(C(C)(C)C)cc(C)c1S(=O)(=O)N1CCN(C(=O)c2cc([N+](=O)[O-])c[nH]c2=O)CC1	-12.0%
Oc1ccccc1-c1cc(C(F)(F)F)nc(-c2ccccc2)n1	18.3%
Cc1cn(C2OC[C@@H](O)[C@@H]2CO)c(=O)[nH]c1=O (stereo partly specified)	-0.8%&-9.9%
Cc1ccc(C)c(S(=O)(=O)N2CCN(C(=O)CNC(=O)c3sc4ccccc4c3Cl)CC2)c1	77.9%[activator]
COc1ccc(CNc2cc(C)ccn2)cc1	-12.0%
O=S(=O)(/N=C(/c1ccc(F)cc1)N1CCCCC1)c1ccc(Cl)cc1	-20.5%
CCn1c(/C=N/Nc2ccc(C(=O)O)cc2)nc2ccccc21	-5.6%
O=C(NCCS(=O)(=O)N1CCN(c2ccccc2F)CC1)c1cccs1	2.5%
O=S(=O)(Nc1cccc(-c2cn3c(n2)SCC3)c1)c1ccccc1F	8.5%
O=C(NC1CC1)c1ccc(C2SCC(=O)N2Cc2ccccc2)cc1 (stereo unspecified)	0.8%
CCN(CC)S(=O)(=O)c1cccc(NC(=O)/C=C/c2ccc([N+](=O)[O-])cc2)c1	-12.6%
CCOc1ccc(NC(=O)CCC(=O)N/N=C(\C)c2cccs2)cc1	-21.9%
CC(=O)N1CCN(C(=O)COC(=O)/C=C/c2ccc(C(F)(F)F)cc2)CC1	16.2%
CCCNC(=O)CSc1nccn1Cc1ccco1	-9.5%
Cc1nn(CC2CC2)c(=O)n1N(C)c1ncc(C(F)(F)F)cc1Cl	-0.6%

Remaining list, next part:
SMILES | VDR inhibitor
COc1ccccc1NC(=O)CC1C(=O)NCCN1C(=O)Nc1ccc(Cl)c(Cl)c1 (stereo unspecified) | -5.9%
O=C(NNC1=Nc2cccc3cccc1c23)c1ccc(Br)cc1 | 6.6%
CCOC(CNC(=O)Cn1nc(Cc2ccncc2)c2ccccc2c1=O)OCC | -4.1%
CC1CCCC(O)(C(C(=O)O)c2ccccc2)C1 (stereo unspecified) | 2.6%
COc1ccc(OC)c(/C=C/C(=O)OCC(=O)Nc2nnc(-c3ccccc3)o2)c1 | 10.8%
Cc1ccsc1C(=O)OCc1nc2ccccc2c(=O)[nH]1 | -7.6%
Fc1ccc(-c2ccc(CNCCSc3nnnn3-c3ccccc3)o2)cc1Cl | -14.9%
COc1ccccc1NC(=O)CN1CCC(n2c(C)nc3cc(F)ccc32)CC1 | -4.5%
COC(=O)C1=C(C)N(C(C)C)C(=O)C1(NC(=O)c1ccc(C(C)(C)C)cc1)C(F)(F)F (stereo unspecified) | 4.8%
CC1CCC(NC(=O)c2ccc3c(c2)N(Cc2cccc(Cl)c2)C(=O)c2ccccc2S3=O)CC1 (stereo unspecified) | 8.0%
CSc1ccc(CCNC(=O)Cn2ncc3c(=O)oc4ccccc4c32)cc1 | -9.1%
COc1ccc([N+](=O)[O-])cc1NC(=O)c1csc(C)c1 | 7.3%
COC(=O)c1ccc(C(=O)OC)c(NC(=O)c2ccc(-c3ccccc3)s2)c1 | 11.4%
O=C(COC(=O)c1ccccc1OCc1ccccc1Cl)NC1CCS(=O)(=O)C1 (stereo unspecified) | -16.4%
COc1cc(NC(=S)NCc2ccco2)cc(OC)c1 | 9.2%
COC(=O)CCC(=O)Nc1cccc(Cl)c1 | -0.2%
CCCn1c(SCC(=O)NCc2ccco2)nnc1C(C)C | -0.9%
Cc1ccc(NC(=O)Nc2ccc(F)cc2F)c(OC(F)F)c1 | -10.7%
COc1ccc(NC(=O)C2CCN(c3ccc(Sc4ccc(C)cc4)nn3)CC2)c(OC)c1 | -16.4%
O=C(CNC(=S)N(Cc1ccccc1)Cc1cccnc1)N1CCOCC1 | -19.5%
Cc1ccnc(NC(=O)CCc2c[nH]c3ccccc23)c1 | 21.4%
CCc1ccc(NS(=O)(=O)c2cc(OC)ccc2OC)cc1 | -3.0%
CC(C)c1cnc2c(c1SCC(=O)Nc1cccc([N+](=O)[O-])c1)c(=O)n(C)c(=O)n2C | -2.1%
CC(C)(C)CC(=O)NCCCN1CCOCC1 | -5.1%
CC(=O)c1ccc(NC(=O)c2cccc(NC(=O)c3ccccc3)c2)cc1 | 4.8%
CCCCN1CCC[C@H]1CNC(=O)c1cc(C#N)c2ccccc2c1OC | 4.6%
COc1cccc(NC(=O)C2CCN(c3nn4cc(-c5ccc(F)cc5)nc4s3)CC2)c1 | -1.8%
N#CCCn1cc(/C=N/NC(N)=S)c(-c2ccc(-c3ccccc3)cc2)n1 | 6.3%
O=C(COC(=O)Cc1ccsc1)NCc1ccccc1 | 11.5%
COCCn1c(SCC(=O)Nc2cc(C)on2)nc2cc(Cl)ccc2c1=O | 9.5%
Cc1nn(-c2ccccc2)c2[nH]c(=O)c(CNCCN3CCOCC3)cc12 | -2.7%
O=C(Cn1cnc2ccccc21)N/N=C/c1ccccc1 | -23.4%
O=C(Nc1ccc(C(F)(F)F)cc1)C(Cc1ccccc1)n1cccc1 (stereo unspecified) | -11.5%
Cc1ccc(C2C(C#N)=C(N)Oc3n[nH]c(-c4ccccc4)c32)o1 (stereo unspecified) | 25.1µM*
CCCNC(=O)c1ccccc1NC(=O)CSCc1ccc(OC)cc1 | 2.8%
O=C(Nc1ccc(C(=O)N2CCN(c3ccc(Cl)cc3)CC2)cc1)c1nsc2ccccc12 | 3.6%
C=CCNc1nc(Nc2cc(Cl)ccc2OC)nc(OC)n1 | 27.3%
CN(NS(=O)(=O)c1ccccc1)C(=O)c1ccccc1 | 9.9%
COCCn1c(SCC(=O)NCc2ccc(F)cc2)nc2ccccc21 | 13.6%
Cc1noc(NS(=O)(=O)c2ccc(NC(=O)c3ccc(F)cc3)cc2)c1C | 4.0%
CCOC(=O)c1[nH]c2c(c1C)C(=O)CC(c1ccc(F)cc1)C2 (stereo unspecified) | -17.9%
Cc1cccc(C)c1NC(=S)NCCCN1CCCC1=O | -13.2%
Cc1cccc(/N=C2/NC(=O)C(Cc3ccccc3)S2)n1 (stereo unspecified) | ?
CC(=O)NS(=O)(=O)c1ccc(NC(=O)CSc2ccc(Cl)cc2)cc1 | -1.3%
CCC(=O)[C@@]1(C)[C@H](C)C[C@H]2[C@@H]3CCC4=CC(=O)C=C[C@]4(C)[C@H]3[C@@H](O)C[C@@]21C | -12.5%
Cc1cccc(OCC(=O)Nc2nnc(S(=O)(=O)N3CCc4ccccc43)s2)c1 | 5.5%
Cc1ccc(S(=O)(=O)N2CCOCC2)cc1C(=O)Nc1nc(-c2ccccn2)cs1 | ?
O=C(NCc1ccccc1)c1sc(=S)n2c1[nH]c(=O)c1ccccc12 | -2.5%
Cc1cc(OC(C)C(=O)N(Cc2ccco2)C2CCS(=O)(=O)C2)cc(C)c1Cl (stereo unspecified) | -19.3%
Cn1cc(C(=O)c2ccc(Cl)cc2Cl)cc1C(=O)O | -3.0%

The results go on:
SMILES | VDR inhibitor
Cc1ccc(N(CC(=O)NC(C)c2ccccc2)S(=O)(=O)c2c(C)noc2C)cc1 (stereo unspecified) | -12.2%&-5.5%
COc1ccc(-c2nc(CSCC(=O)N3CCc4ccccc43)c(C)o2)cc1OC | -3.9%
O=C(C1CCCCC1)N1CCC(c2nc3c(nnn3Cc3c(F)cccc3Cl)c(=O)[nH]2)CC1 | -10.0%
O=C1Nc2c(c(=O)[nH]c(=O)n2-c2ccccc2)C1(NS(=O)(=O)c1ccc(Cl)cc1)C(F)(F)F (stereo unspecified) | 1.2%
C/C(=N\NC(=O)c1ccc(C)cc1C)c1ccc2c(c1)Nc1ccccc1S2 | -26.4%
CCN(CC)C(=O)Cn1cnc2sc(C(=O)N3CCN(c4ccc(F)cc4)CC3)c(C)c2c1=O | 3.1%
CC(=O)N1c2ccc(S(=O)(=O)N3CCCC(C(=O)Nc4cccc(Cl)c4)C3)cc2CC1C (stereo unspecified) | 31.8%[activator]
O=C(Cc1ccccc1)c1ccccc1C(=O)N1CCCCC1 | 3.9%
CC1CCC(NC(=O)CNC(=O)c2ccc3ccccc3c2)CC1 (stereo unspecified) | -3.5%
O=C(CCCC(=O)OCC(Cl)=C(Cl)Cl)Nc1ccc(F)cc1 | 5.3%
N#Cc1ccc(C(=O)OCC(=O)NC2CCCC2)cc1 | 5.3%
Cc1ccc(S(=O)(=O)Cc2csc(N)n2)cc1 | -0.3%
O=C(CN1CCOCC1)Nc1ccccc1 | 25.5%
COc1ccccc1CNC(=O)CCCn1c(=O)c2ccccc2n(CC(=O)NC2CCCC2)c1=O | 10.7%
